DUX4 inh – blocks DUX4-driven transcriptional activation. 293T-iDUX4 ZSCAN4-Gaussia luciferase reporter, 24 h; stronger effect = lower value. activity change, negative = inhibition, % (no concentration beside the values). hit rate 0.8% among 37,000;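 active means -10% or lower and over 25 points stronger than a control reporter; inconclusive means -10% or lower with a smaller gap; inactive means above -10%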;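 further: 0% = median of neutral control wells and -100% = median of positive control wells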
DUX4 inh difference – further read-out of DUX4 inh, marked with its call; Gaussia minus Italica difference, %; measured here: selective DUX4 reporter inhibition;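 worked out from the two reporters; negative = selective loss of the DUX4 reporter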
DUX4 inh control – recorded beside DUX4 inh, whose call it bears; activity change, negative = inhibition, %; measured here: Italica tet-on control reporter;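 0 = neutral control and -100 = positive control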
Starred values were filed as active, the others as inactive; ? = inconclusive; / = no result given. A portion of the library. The share of hits here may be higher or lower than overall.

Order of values – DUX4 inh, DUX4 inh difference, DUX4 inh control
- C/C=C/c1ccccc1[C@@H]1[C@@H](C#N)N(C(=O)CN2CCOCC2)[C@@H]1CO
 : 8, -4, 12
- O=C(c1ccccc1F)N1CC(=O)N2[C@H](CO)[C@@H](c3ccc(-c4cccnc4)cc3)[C@@H]2C1
 : -10, -3, -6.9
- CCC(=O)N1CC(=O)N2[C@H](CO)[C@@H](c3ccc(C#CC4CCCCC4)cc3)[C@@H]2C1
 : -4, -1, -3.5
- CC(C)CC#Cc1ccc([C@@H]2[C@H](CO)N3C(=O)CN(S(=O)(=O)c4cccc(F)c4)C[C@@H]23)cc1
 : 5, 5, 0.4
- CC(C)C#Cc1ccc([C@@H]2[C@H]3CN(C(=O)c4ccc(F)cc4)CCCCN3[C@H]2CO)cc1
 : -26*, -25*, -0.8*
- CCCNC(=O)[C@H]1[C@H](CO)[C@H]2Cn3c(ccc(C4=CCCC4)c3=O)[C@H]2N1Cc1ccccc1
 : -1, 4, -5.5
- CS(=O)(=O)N1CC(=O)N2[C@H](CO)[C@H](c3ccc(C#CC4CCCC4)cc3)[C@@H]2C1
 : 3, 1, 1.9
- c1ccc(CN2[C@@H]3CNC[C@H]2C3c2ccc(-c3ccncc3)cc2)nc1 (stereo partly specified)
 : 15, 10, 5.5
- CN1CCN(C(=O)C[C@H]2C[C@@H]3c4cc(NC(=O)Nc5ccc(C(F)(F)F)cc5)ccc4O[C@@H]3[C@@H](CO)O2)CC1
 : -8, -11, 3.1
- CN(C)C(=O)C[C@@H]1CC[C@@H]2[C@H](COC[C@H](O)CN2CC2CCCCC2)O1
 : 5, 0, 4.6
- C[C@H](NC(=O)C[C@@H]1CC[C@@H](NC(=O)Cc2ccccn2)[C@@H](CO)O1)c1ccccc1
 : -4, -9, 5.2
- COc1cccc(S(=O)(=O)Nc2ccc3c(c2)C(=O)N(C)[C@H]2CC[C@H](CC(=O)O)O[C@H]2CO3)c1
 : 6, 1, 4.1
- C[C@H]1CN([C@@H](C)CO)C(=O)Cc2cc(NC(=O)Cn3cnnn3)ccc2O[C@H]1CN(C)C(=O)Nc1ccc(C(F)(F)F)cc1
 : -1, -5, 4.2
- COc1cccc(S(=O)(=O)Nc2ccc3c(c2)C(=O)N(C)[C@@H]2CC[C@@H](CC(=O)NCC4CCCCC4)O[C@H]2CO3)c1
 : 2, -1, 2.9
- N#C[C@@H]1[C@H](c2ccc(C#CC3CCCC3)cc2)[C@@H](CO)N1S(=O)(=O)c1ccccc1
 : -3, -6, 3.1
- C[C@H]1CN([C@@H](C)CO)C(=O)c2cc(-c3cccnc3)cnc2O[C@@H]1CN(C)C(=O)c1ccccc1F
 : -3, -3, 0.6
- CCCNC(=O)N1CC2(C1)[C@@H](c1ccccc1)[C@H](CO)N2C(=O)C1CCCC1
 : 10, 9, 1.2
- CC(=O)NC[C@H]1[C@@H](c2ccc(-c3cccnc3)cc2)[C@H](CO)N1C(=O)C1CCC1
 : -4, -5, 1.4
- CN1c2ccc(-c3cccc(F)c3)cc2[C@H]2[C@H](CCN2C(=O)c2ccccc2F)[C@@H]1CO
 : -9, 1, -9.8
- CN1CCCCN2[C@H](CO)[C@@H](c3ccc(-c4ccc(F)cc4)cc3)[C@@H]2C1
 : 12, 8, 3.7
- C[C@H](CO)N1C[C@H](C)[C@H](CN(C)C(=O)[C@@H](Cc2ccccc2)N(C)C)OCc2ccccc2-c2c(n(C)c3ccccc23)C1=O
 : ?, /, /
- O=C(NC[C@H]1[C@H](c2ccccc2)[C@H](CO)N1CC1CCCC1)c1cccnc1
 : -3, -6, 2.9
- O=C(c1ccc2c(c1)OCO2)N1CC2(C1)[C@@H](c1ccccc1)[C@@H](CO)N2C(=O)C1CC1
 : 7, 8, -0.9
- CCC(=O)N(C)C[C@H]1[C@@H](c2ccc(C3=CCCCC3)cc2)[C@@H](CO)N1C(=O)CC
 : -5, -4, -1.1
- O=C(C[C@@H]1CC[C@H]2[C@@H](COC[C@H](O)CN2C(=O)Cc2ccccc2)O1)NC1Cc2ccccc2C1
 : 3, 1, 2.0
- O=C([C@H]1[C@H](CO)[C@H]2Cn3c(ccc(-c4ccncc4)c3=O)[C@H]2N1CCC(F)(F)F)N1CCOCC1
 : 3, 2, 1.2
- C[C@@H]1CN([C@@H](C)CO)C(=O)c2cc(C#Cc3ccccc3F)cnc2O[C@H]1CN(C)C(=O)Cc1cccnc1
 : -2, 4, -5.2
- O=S(=O)(Cc1ccccc1)N1CCCCN2[C@@H](CO)[C@H](c3ccc(-c4ccc(F)cc4)cc3)[C@@H]2C1
 : ?, /, /
- C[C@@H]1CN([C@@H](C)CO)C(=O)c2cccc(N(C)C)c2O[C@@H]1CN(C)S(=O)(=O)c1cn(C)cn1
 : 0, 0, 0.1
- CN(C)C(=O)c1ccc(-c2ccccc2[C@@H]2[C@H](C#N)N(C(=O)C3CC3)[C@H]2CO)cc1
 : 13, 2, 11
- C[C@@H]1CN([C@H](C)CO)C(=O)c2cc(C#Cc3ccc(F)cc3)cnc2O[C@H]1CN(C)C
 : 0, 0, 0.0
- CCC(=O)N1C[C@H]2[C@@H](c3ccccc31)[C@@H](CO)N2Cc1ccc(F)cc1
 : 0, 14, -14
- CCC(=O)N1C[C@H](C)[C@H](OC)CN(C)C(=O)c2ccc(NC(=O)CC(F)(F)F)cc2OC[C@@H]1C
 : 1, 3, -1.7
- CN1C[C@H]2[C@@H](c3ccccc31)[C@@H](CO)N2C(=O)CN1CCOCC1
 : 0, -3, 2.5
- O=C(CN1CCOCC1)NCC[C@H]1CC[C@H](NC(=O)Cc2ccccn2)[C@@H](CO)O1
 : -1, 0, -1.0
- O=C(C[C@H]1CC[C@H]2NC[C@@H](O)COC[C@@H]2O1)Nc1ccccc1
 : 14, 6, 7.9
- O=C(C1CCC1)N1[C@@H](CO)[C@@H](c2ccccc2)C12CN(Cc1cccc(Cl)c1)C2
 : ?, /, /
- CCCNC(=O)[C@@H]1[C@@H](CO)[C@@H]2Cn3c(ccc(-c4ccccc4F)c3=O)[C@@H]2N1CCC
 : -2, -4, 1.8
- O=C(C1CCOCC1)N1CC[C@@H]2[C@@H](CO)Nc3ccc(Br)cc3[C@@H]21
 : 24, 14, 10
- C[C@H]1CCCCO[C@@H](CN(C)S(=O)(=O)c2cn(C)cn2)[C@@H](C)CN([C@@H](C)CO)C(=O)c2cc(NC(=O)Nc3ccc(C(F)(F)F)cc3)ccc2O1
 : -1, -4, 2.2
- CO[C@@H]1CC[C@@H]2CCN(C)C(=O)[C@H](C)[C@H](OC)CN(C)C(=O)c3cc(C#N)ccc3OC[C@@H]1O2
 : 0, 3, -3.0
- CN(C[C@@H]1[C@H](c2ccccc2)[C@@H](CO)N1Cc1ccccn1)S(C)(=O)=O
 : -1, 0, -0.7
- COC(=O)C[C@H]1CC[C@@H]2[C@H](COc3ccc(NC(=O)c4cscn4)cc3C(=O)N2C)O1
 : -3, -6, 3.5
- O=C(O)C[C@@H]1C[C@H]2c3cc(NC(=O)Nc4ccccc4F)ccc3O[C@H]2[C@@H](CO)O1
 : -1, -5, 4.6
- CN(C)C(=O)c1ccc(-c2ccc([C@H]3[C@H]4CN(CCC(F)(F)F)CCCCN4[C@H]3CO)cc2)cc1
 : 8, 14, -6.0
- C[C@H]1CCCCO[C@@H](CN(C)C(=O)Nc2ccc3c(c2)OCO3)[C@@H](C)CN([C@@H](C)CO)C(=O)c2cc(NC(=O)C3CCCCC3)ccc2O1
 : 1, 4, -2.8
- O=C1CN(Cc2ccc(F)cc2)C[C@H]2[C@@H](c3ccc(Br)cc3)[C@H](CO)N12
 : -1, -8, 7.1
- CN1CCN(C(=O)C[C@@H]2CC[C@@H](NC(=O)c3ccc4c(c3)OCO4)[C@@H](CO)O2)CC1
 : 2, 0, 2.5
- C[C@@H]1CN([C@H](C)CO)S(=O)(=O)c2ccc(C#CC3CCCCC3)cc2O[C@H]1CN(C)Cc1cccnc1
 : 2, -2, 4.1
- COCC(=O)N1[C@H](CO)[C@@H](c2ccccc2-c2cccc(F)c2)[C@@H]1C#N
 : 13, 6, 6.7
- O=C(c1cccc(F)c1)N1CCCCN2[C@@H](CO)[C@@H](c3ccc(-c4ccccc4)cc3)[C@@H]2C1
 : ?, /, /
- COc1ccc2c3c(n(C)c2c1)[C@H](CO)N(Cc1ccncc1)CC31CN(C(=O)NC(C)C)C1
 : 8, 4, 4.2
- O=C(CC(F)(F)F)N1C[C@@H]2[C@H](c3ccccc31)[C@@H](CO)N2CC1CCOCC1
 : 3, -3, 6.7
- CCC(=O)N1C[C@@H]2[C@H](c3ccccc31)[C@H](CO)N2Cc1ccccc1F
 : -1, 0, -0.9
- O=C([C@H]1[C@H](CO)[C@H]2Cn3c(ccc(-c4ccc(F)cc4)c3=O)[C@@H]1N2)N1CCCCC1
 : 6, 5, 0.7
- COCC(=O)Nc1ccc2c(c1)C(=O)N(C)[C@H]1CC[C@@H](CC(=O)NCCc3ccccc3)O[C@H]1CO2
 : -3, -5, 2.2
- C[C@H]1CN([C@@H](C)CO)S(=O)(=O)c2ccc(C#CCC3CCCC3)cc2O[C@@H]1CN(C)C(=O)c1cnccn1
 : 0, -2, 1.8
- O=C(c1ccccc1F)N1CC(=O)N2[C@H](CO)[C@H](c3ccc(C#Cc4ccccc4)cc3)[C@H]2C1
 : 2, -1, 2.8
- CCCC#Cc1ccc([C@@H]2[C@@H](CO)N3CCCCN(S(=O)(=O)Cc4ccccc4)C[C@H]23)cc1
 : -2, -1, -0.7
- CCNC(=O)[C@H]1[C@H](CO)[C@H]2Cn3c(ccc(-c4ccccc4F)c3=O)[C@@H]1N2CCC(F)(F)F
 : -1, -2, 1.0

Remaining list, next part
Order of values – DUX4 inh, DUX4 inh difference, DUX4 inh control
- CS(=O)(=O)Nc1ccc2c(c1)[C@H]1C[C@@H](CC(=O)NCc3ccc(Cl)cc3)O[C@H](CO)[C@H]1O2
 : -1, 1, -1.8
- COc1ccc(NC(=O)Nc2ccc3c(c2)C(=O)N([C@H](C)CO)C[C@H](C)[C@@H](CN(C)C(=O)NC2CCCCC2)OCCCC[C@@H](C)O3)cc1
 : 3, 0, 3.6
- CCCNC(=O)N1[C@H](CO)[C@@H](c2ccc(C3=CCCCC3)cc2)[C@@H]1C#N
 : 0, -2, 1.6
- C[C@@H]1CN([C@@H](C)CO)C(=O)c2cccc(NS(=O)(=O)c3ccccc3)c2O[C@@H]1CN(C)S(C)(=O)=O
 : 4, -4, 8.3
- CO[C@H]1CN(C)C(=O)c2ccc(NC(=O)Nc3cc(F)ccc3F)cc2OC[C@H](C)N(C(=O)c2ccccn2)C[C@H]1C
 : -3, -9, 5.3
- COc1cccc(-c2ccc3n(c2=O)C[C@H]2[C@H](CO)[C@@H](C(=O)NC4Cc5ccccc5C4)N[C@@H]32)c1
 : -3, -1, -2.1
- C[C@@H]1CCCCO[C@@H](CN(C)C(=O)NC2CCCCC2)[C@H](C)CN([C@@H](C)CO)C(=O)c2cc(NC(=O)Cc3ccccc3)ccc2O1
 : ?, /, /
- CCCNC(=O)[C@@H]1[C@@H](CO)[C@@H]2Cn3c(ccc(-c4cccc(F)c4)c3=O)[C@H]1N2C(=O)c1ccccn1
 : 0, -1, 0.3
- CCNC(=O)[C@H]1[C@H](CO)[C@H]2Cn3c(ccc(C4=CCCCC4)c3=O)[C@H]2N1C(=O)CC1CC1
 : 8, 3, 4.9
- O=C(C[C@@H]1CC[C@H](NC(=O)C2CCC2)[C@H](CO)O1)NCc1ccncc1
 : 1, 1, -0.1
- O=C(Cc1ccccc1)N1CC(=O)N2[C@H](CO)[C@@H](c3ccc(-c4ccc(F)cc4)cc3)[C@H]2C1
 : -5, -1, -4.3
- Cc1ccc(S(=O)(=O)N2C[C@@H](O)COC[C@H]3O[C@H](CC(=O)NCc4ccc5c(c4)OCO5)CC[C@@H]32)cc1
 : ?, /, /
- N#C[C@@H]1[C@H](c2ccc(C3=CCCCC3)cc2)[C@H](CO)N1S(=O)(=O)c1cccc(F)c1
 : -2, -2, 0.1
- C[C@H](CO)N1C[C@H](C)[C@@H](CN(C)S(=O)(=O)c2cccs2)Oc2ccc(NS(C)(=O)=O)cc2CC1=O
 : -2, -4, 1.6
- C[C@@H]1CN([C@H](C)CO)C(=O)CCCn2cc(nn2)CO[C@H]1CN(C)C(=O)NC1CCCCC1
 : 7, 3, 4.1
- CNC[C@@H]1Oc2c(NC(=O)Nc3cccc4ccccc34)cccc2C(=O)N([C@@H](C)CO)C[C@H]1C
 : 2, 4, -1.6
- CN1CCN(C(=O)[C@@H]2[C@@H](CO)[C@@H]3Cn4c(ccc(C5=CCCC5)c4=O)[C@H]2N3S(C)(=O)=O)CC1
 : ?, /, /
- COC(=O)[C@H]1[C@H](CO)[C@H]2Cn3c(cccc3=O)[C@H]2N1C(=O)C1CC1
 : 4, 6, -1.9
- C[C@@H]1CN([C@H](C)CO)C(=O)c2cc(NS(=O)(=O)c3cn(C)cn3)ccc2O[C@@H](C)CCCCO[C@@H]1CN(C)C(=O)CCCN(C)C
 : 0, -2, 1.6

Profiles from above. Order of screens: DUX4 inh | DUX4 inh difference | DUX4 inh control
`CCCNC(=O)N1[C@H](CO)[C@@H](c2ccc(C3=CCCCC3)cc2)[C@@H]1C#N` as listed: 0 | -2 | 1.6
`CNC[C@@H]1Oc2c(NC(=O)Nc3cccc4ccccc34)cccc2C(=O)N([C@@H](C)CO)C[C@H]1C` as listed: 2 | 4 | -1.6
`O=C(Cc1ccccc1)N1CC(=O)N2[C@H](CO)[C@@H](c3ccc(-c4ccc(F)cc4)cc3)[C@H]2C1` as listed: -5 | -1 | -4.3
`CS(=O)(=O)Nc1ccc2c(c1)[C@H]1C[C@@H](CC(=O)NCc3ccc(Cl)cc3)O[C@H](CO)[C@H]1O2` as listed: -1 | 1 | -1.8
`C[C@@H]1CN([C@H](C)CO)C(=O)c2cc(NS(=O)(=O)c3cn(C)cn3)ccc2O[C@@H](C)CCCCO[C@@H]1CN(C)C(=O)CCCN(C)C` as listed: 0 | -2 | 1.6

High-throughput results from PubChem.
